# Compound activity as filed in PubChem.
# GALR2 agonist – GALR2 receptor agonists, primary screen, cell-based. Galanin receptor type 2 (Homo sapiens), O43603. actives 0.48% (n = 140,000). activation, %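 (tested at 5 µM)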. GALR2-expressing cells, agonist activation read-out;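 active = above mean plus 3 SD of all compounds, about 5% in these data, not always enough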;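 note: 0% = vehicle buffer wells and 100% = reference agonist at full effect; tested in CHO reporter cells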
# PKD1 kinase inh – inhibitors of human PKD1 kinase, biochemical, fluorescence polarization | Serine/threonine-protein kinase D1 (Homo sapiens), Q15139 | PKD1 kinase fluorescence polarization assay | inhibition, %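 (about 10 µM by stock and volumes)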 | actives 0.056% (n = 200,000);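 active = inhibition of 50% or more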;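 note: controls were vehicle for no effect and a reference inhibitor for full effect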
# Target sequence (Q15139 whole entry, looked up): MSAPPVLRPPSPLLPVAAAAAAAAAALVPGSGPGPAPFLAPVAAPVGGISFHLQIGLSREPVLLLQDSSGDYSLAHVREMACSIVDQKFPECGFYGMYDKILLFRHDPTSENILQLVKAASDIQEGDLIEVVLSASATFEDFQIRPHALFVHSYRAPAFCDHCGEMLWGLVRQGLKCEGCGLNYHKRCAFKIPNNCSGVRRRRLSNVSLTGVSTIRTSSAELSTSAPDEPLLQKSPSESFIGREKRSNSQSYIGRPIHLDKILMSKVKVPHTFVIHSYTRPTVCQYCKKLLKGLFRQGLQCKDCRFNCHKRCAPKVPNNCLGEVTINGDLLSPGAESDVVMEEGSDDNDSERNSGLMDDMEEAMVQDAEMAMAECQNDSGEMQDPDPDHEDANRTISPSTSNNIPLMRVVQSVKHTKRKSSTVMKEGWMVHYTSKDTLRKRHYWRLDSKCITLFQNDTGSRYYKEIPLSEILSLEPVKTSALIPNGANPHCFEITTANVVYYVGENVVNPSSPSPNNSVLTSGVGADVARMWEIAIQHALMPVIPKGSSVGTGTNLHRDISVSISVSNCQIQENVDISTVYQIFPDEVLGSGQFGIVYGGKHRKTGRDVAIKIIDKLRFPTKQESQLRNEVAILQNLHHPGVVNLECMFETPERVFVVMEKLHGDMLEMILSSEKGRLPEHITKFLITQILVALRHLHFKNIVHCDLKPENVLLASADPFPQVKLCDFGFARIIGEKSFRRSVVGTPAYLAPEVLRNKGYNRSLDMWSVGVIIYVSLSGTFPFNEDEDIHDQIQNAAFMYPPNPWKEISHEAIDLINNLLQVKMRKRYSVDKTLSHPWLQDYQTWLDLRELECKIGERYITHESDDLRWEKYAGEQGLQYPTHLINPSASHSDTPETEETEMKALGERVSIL
# INS promoter inh – inhibitors of insulin promoter-driven GFP, primary screen, imaging, TRM-6 cells (human fetal islet line), eGFP reporter, cell count; actives 0.9% (n = 130,000); reporter expression induced with tamoxifen; inhibition, % at 2 µM;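 active = inhibition above the mean plus 3 SD, with well images judged a real hit on visual review, cut at about 60% in these data, passing the limit was not always enough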
# RGS16-Gao HTS – modulators of RGS16 binding to Galphao, primary screen, biochemical, human proteins, multiplexed bead flow cytometry; Regulator of G-protein signaling 16 (Homo sapiens) + Guanine nucleotide-binding protein …; bead-based flow cytometry RGS16-Galphao binding, fluorescence; actives lie on both sides; binding response (% of control), % at 10 µM; actives 0.38% (n = 220,000); AID 1441, 2008;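 active = below 25% or above 175%, edge rows of some plates excepted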;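 note: Galphao activated by GDP with aluminum fluoride before binding; 100% = wells without compound and 0% = beads without RGS; some results beyond the cut were filed as inactive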
# HSV replic up – enhancers of HSV replication in host cells, fold increase, host cell viability | HSV replication augmentation in cells | maximum fold increase | actives 0.005% (n = 220,000);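 active = peak rise of 1.5-fold or more in the series; tested in PC3 cells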;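 note: first round at 10 µM; read as green reporter fluorescence; hits show the peak of a series up to 25 µM; 1 = signal of infected wells without compound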
# INS promoter inh cell count – also measured in INS promoter inh; calls as there; normalized cell count, %; measured here: cell count, toxicity; reference of the scale not given here;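 cells exposed to compound for 48 h; stained nuclei by imaging scaled within each plate; lower means fewer cells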
# HSV replic up primary fold – second read-out of HSV replic up, no call of its own (marks repeat the call); fold increase; compound at 10 µM; measured here: primary screen fold increase 10 uM; tested in PC3 cells;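 GFP signal in the first replicate; 1 = infected wells without compound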
# Active calls of the source: *; i = inactive; . = no result given.
SMILES,GALR2 agonist,PKD1 kinase inh,INS promoter inh,INS promoter inh cell count,RGS16-Gao HTS,HSV replic up,HSV replic up primary fold
CCN(CCCNC(=O)Cn1cc2c(n1)CCCC2)c1cccc(C)c1,-1.6,-9,.,.,111,i,0.76
Cc1cc(OCCOCCN(C)CCO)cc(C)c1Cl,0.5,0,-89,159,102,i,0.92
COc1ccccc1NC(=O)Oc1ccc(NC(=O)c2ccco2)cc1,-1.0,-7,0,46,80,i,0.85
O=c1c2ccccc2n2c(-c3cccc(F)c3)nnc2n1Cc1ccccc1,0.4,-7,.,.,101,i,0.91
COc1ccc(NC(=O)c2ccco2)cc1NC(=O)c1cc2ccccc2o1,-1.6,-15,15,110,77,i,0.89
CCOc1ccccc1C1NC(=O)NC(C)=C1C(=O)OC1CCCC1C (stereo unspecified),1.0,-2,-5,106,75,i,0.93
Cc1cc(C)c(C#N)c(SCc2[nH]nc3c2C(c2ccc(F)cc2)C(C#N)=C(N)O3)n1 (stereo unspecified),-2.1,-1,63,128,105,i,0.86
COC(=O)c1ccccc1NC(=O)Cn1c(=O)oc2ccc(Cl)cc21,-0.5,-1,-10,100,100,i,0.62
Cc1ccc(-n2ncc3c(=O)n(CC#N)cnc32)cc1C,-0.3,3,-28,111,84,i,0.95
CCOC(=O)c1c(-n2cccc2)sc2c1CCCC2=O,0.3,8,-58,147,102,i,0.94
O=C(Nc1ccc(O)c(C(=O)O)c1)c1ccc2c(c1)C(=O)N(CC1CCCO1)C2=O (stereo unspecified),-0.4,1,.,.,102,i,0.83
Cn1cnnc1SCC(=O)NNC(=O)COc1ccc(Cl)cc1,.,-3,.,.,103,i,1
Cc1sc(NC(=O)CSc2nnc(COc3ccc(Cl)cc3)n2C)c(C#N)c1C,-3.9,-11,27,132,95,i,0.84
CCOC(=O)c1nnn(-c2nonc2N)c1CN1CCCCCC1,-1.7,-9,.,.,101,i,0.85
CCOC(=O)c1cccc(-n2c(-c3ccc(OC)cc3)nc3nc4ccccc4nc32)c1,0.6,0,-43,91,101,i,0.98
CC(C(=O)N1c2ccccc2Sc2ccccc21)n1nnc(-c2cccs2)n1 (stereo unspecified),-1.5,-8,-15,92,103,i,1
COc1ccc(NC(=O)C2=C(C)C(=O)OC23CCC(C)CC3)cc1Cl (stereo unspecified),84*,5,-44,104,93,i,0.87
CCCC(=O)Nc1cccc(-c2cn3cccnc3n2)c1,.,1,-46,124,104,i,0.97
CCOc1cc(-c2cc(-c3ccc(C)o3)nc(N)c2C#N)ccc1O,2.5,0,-29,121,90,i,0.73
Fc1cc(F)c2nc(Nc3nc4cc5c(cc4s3)OCO5)sc2c1,2.0,5,-28,68,99,i,0.7
COC(=O)COc1ccc(S(=O)(=O)N2CCc3ccccc3C2)cc1C,-0.7,2,25,111,116,i,1.2
CNC(=S)Nc1cccc2[nH]ncc12,-2.6,-2,34,73,92,i,0.86
CCOc1ccc(C(=O)Nc2cc(OC)ccc2OC)cc1,-2.7,-14,14,156,104,i,0.89
CCCN1C(=O)/C(=C/c2ccncc2)SC1=S,-0.5,-11,7,141,73,i,0.92
COc1ccc(N2CC(C(=O)NC3CC(C)(C)NC(C)(C)C3)CC2=O)cc1 (stereo unspecified),-2.0,-2,.,.,106,i,0.99

# Overlap with the part before: 2 compounds, followed by the next part.
SMILES,GALR2 agonist,PKD1 kinase inh,INS promoter inh,INS promoter inh cell count,RGS16-Gao HTS,HSV replic up,HSV replic up primary fold
CCCN1C(=O)/C(=C/c2ccncc2)SC1=S,-0.5,-11,7,141,73,i,0.92
COc1ccc(N2CC(C(=O)NC3CC(C)(C)NC(C)(C)C3)CC2=O)cc1 (stereo unspecified),-2.0,-2,.,.,106,i,0.99
Cc1oc2c(C)c(O)ccc2c(=O)c1-c1nncn1-c1ccccc1,.,-11,.,.,101,i,1.1
COC(=O)c1sc(Nc2ccccc2)nc1C,-0.1,0,.,.,101,i,0.79
CCOc1ccccc1N1CC(C(=O)NCCc2ccc(S(N)(=O)=O)cc2)CC1=O (stereo unspecified),-0.4,6,7,100,105,.,.
Cc1ccc(NC(=O)c2cn(CCC#N)nc2-c2cccs2)c([N+](=O)[O-])c1,0.8,9,.,.,190,i,1.1
Cc1sc2nc(SCC(=O)N3CCN(CCO)CC3)n(-c3ccccc3)c(=O)c2c1C,0.9,4,-30,82,113,i,1
COc1cc(C(=O)N(CCc2ccccc2)C2=CC3CCC(C2)N3C)cc(OC)c1OC (stereo unspecified),-0.8,-3,-294,125,90,i,0.95
Nc1ccc(N2CCCCC2)c2nonc12,.,-2,.,.,94,i,1
CN(CCO)c1ncnc2nc[nH]c12,-1.1,-6,.,.,95,i,1
C/C(=N\NC(=O)c1cc(-c2ccco2)nc2ccccc12)c1cccnc1,.,-2,.,.,103,i,0.81
COC(=O)c1ccc(-n2cc(-c3ccc(OC)cc3)[nH]c2=S)cc1,-1.9,-5,-14,51,109,i,1
CCc1c(C(=O)NNC(=S)NCc2ccccc2)csc1C,-0.8,-4,-85,121,98,i,1.1
COC(=O)c1cnn(-c2nc3c(C)cccc3s2)c1C,0.3,2,-17,99,105,i,0.94
CC(=O)Nc1ccc(S(=O)(=O)N2CCN(c3ccc(C)c(Cl)c3)CC2)cc1,-2.1,-7,.,.,104,i,0.94
O=C(Cn1ccc([N+](=O)[O-])n1)NCCc1c[nH]c2ccccc12,.,6,.,.,94,i,0.98
CCC(=O)Nc1ccc(C(=O)NNC(=O)c2cc(OC)c(OC)c(OC)c2)cc1,.,-1,.,.,103,i,1
CC(=O)c1ccc(NC2CC(O)C(O)CO2)cc1 (stereo unspecified),-1.4,-11,27,117,104,i,0.96
O=c1[nH]c2ccccc2nc1/C=C/c1ccc(F)cc1,.,-2,.,.,106,i,1.2
COc1cc(SC)ccc1C(=O)Nc1ccncc1,.,-4,-33,128,98,i,1
Cc1ccc(C)c(OCc2ccc(C(=O)NN)o2)c1,.,.,.,.,100,i,1.1
CCn1c(C)nc2cc(C(=O)N/N=C/c3ccccc3C)ccc21,.,-2,.,.,111,i,0.83
Cc1ccc(S(=O)(=O)NNC(=O)Cc2cccn2C)cc1,.,-4,.,.,98,i,1
O=C(CCN1C(=O)c2ccc([N+](=O)[O-])cc2C1=O)Nc1nccs1,.,0,.,.,102,i,0.97
COc1ccc(/C=N/NC(=O)Cn2cnc3c2c(=O)n(C)c(=O)n3C)c(OC)c1OC,.,.,.,.,103,i,0.96
Cc1ccc(NC(=O)CCCSc2ccccc2)cc1S(=O)(=O)N1CCOCC1,.,-2,-95,70,113,i,0.89
CC(C)Cc1nnc(NC(=O)Cc2ccccc2[N+](=O)[O-])s1,-1.4,-1,39,95,107,i,0.93
# Next section.
SMILES,GALR2 agonist,PKD1 kinase inh,INS promoter inh,INS promoter inh cell count,RGS16-Gao HTS,HSV replic up,HSV replic up primary fold
CCCCn1c(SCC(=O)N2CCc3ccccc32)nnc1-c1ccncc1,.,.,.,.,102,i,0.99
Cc1ccc2[nH]c(=O)c(CN(CCO)Cc3nnnn3CCc3ccccc3)cc2c1,0.3,0,-21,62,100,i,0.7
CN1CCCC(C(=O)C(C#N)c2ccccc2)C1 (stereo unspecified),-0.1,10,.,.,107,i,0.91
NC(=O)c1cc2c(s1)-c1cc(Cl)ccc1SC2,.,.,.,.,101,i,1
Cc1ccc2cc(CNC(C)C)c(=O)[nH]c2c1,-0.6,-3,.,.,40,i,0.99
Cc1cc(OCC(=O)N(C(C)C)C(C)C)ccc1Cl,.,-5,-47,129,105,i,0.96
Cc1ccc2oc(-c3ccccc3)c(C(=O)O)c(=O)c2c1,-2.2,-14,20,122,98,i,1.1
CC(Oc1ccc(Cl)cc1Cl)c1nc(-c2ccc(NC(=O)c3cccnc3)cc2)no1 (stereo unspecified),-0.9,2,-363,46,91,i,0.92
O=C(NCc1cccnc1)C(C(=O)c1ccc(F)cc1)n1ccccc1=O (stereo unspecified),-0.2,1,7,84,92,i,1.2
C=CCn1c(=O)[nH]c2cc(C(=O)N3CCN(c4cccc(Cl)c4)CC3)ccc2c1=O,-2.8,5,.,.,99,.,.
CNS(=O)(=O)c1cccc(C(=O)OCC(=O)c2cc(C)n(-c3ccc4c(c3)OCO4)c2C)c1,-2.4,-8,37,185,91,i,0.89
Cc1c(NC(=O)C(C)OC(=O)c2cccc([N+](=O)[O-])c2)c(=O)n(-c2ccccc2)n1C (stereo unspecified),.,0,.,.,106,i,1.2
O=C(CCC(=O)Nc1ccc(F)cc1)N/N=C/c1ccccc1O,.,1,.,.,91,i,0.81
Cn1nnc2cc(C(=O)N3CCN(c4ccccc4)CC3)ccc21,-1.3,0,-105,80,93,i,0.91
CCOc1cc2[nH]c(=S)n(CC3CCCO3)c(=O)c2cc1OCC (stereo unspecified),-0.9,2,60,84,96,i,0.95
CN1CCN(c2ccccc2NC(=O)c2cc3c(s2)-c2ccccc2OC3)CC1,.,.,.,.,102,i,0.75
CC(C(=O)NC1CCCC1)N1CCN(Cc2ccccc2)CC1 (stereo unspecified),.,-2,41,61,110,i,1
Cn1c(Cn2c(=O)sc3ccccc32)nnc1SCC(=O)NC1CCCCC1,-0.2,-6,.,.,103,i,0.75
c1ccc(CNC2=NCCC2)nc1,-3.0,-4,-52,67,91,i,0.94
CCN(Cc1ccccc1)S(=O)(=O)c1ccc(C(=O)N2CCN(c3nc4ccccc4s3)CC2)cc1,-1.4,-3,31,145,103,i,0.9
CN(C)S(=O)(=O)c1ccc(NC(=O)COc2ncnc3c2cnn3-c2ccccc2)cc1,0.2,6,.,.,70,i,0.92
O=[N+]([O-])c1cc(Cl)ccc1N1CCN(c2cccc(C(F)(F)F)c2)CC1,-0.8,0,.,.,100,i,1.2
CN(c1ccccc1)c1nc(N2CCCC2)nc(-n2ccnc2)n1,-3.2,1,0,107,99,i,0.94
COC(=O)c1c(NC(=O)CSc2nnnn2-c2ccccc2)sc2c1CCC(C(C)(C)C)C2 (stereo unspecified),-2.6,0,17,121,107,i,1.1
Cc1ccc(CN2CCNC(=O)C2CC(=O)N(C)C(C2CC2)C2CC2)o1 (stereo unspecified),.,-1,.,.,103,i,1.2

# Shown as labelled records: part of the list above.
O=C(CCN1C(=O)c2ccc([N+](=O)[O-])cc2C1=O)Nc1nccs1
  GALR2 agonist = . | PKD1 kinase inh = 0 | INS promoter inh = . | INS promoter inh cell count = . | RGS16-Gao HTS = 102 | HSV replic up = i | HSV replic up primary fold = 0.97
COc1ccc(/C=N/NC(=O)Cn2cnc3c2c(=O)n(C)c(=O)n3C)c(OC)c1OC
  GALR2 agonist = . | PKD1 kinase inh = . | INS promoter inh = . | INS promoter inh cell count = . | RGS16-Gao HTS = 103 | HSV replic up = i | HSV replic up primary fold = 0.96

# The results go on:
SMILES,GALR2 agonist,PKD1 kinase inh,INS promoter inh,INS promoter inh cell count,RGS16-Gao HTS,HSV replic up,HSV replic up primary fold
O=C(N/N=C/c1ccco1)/C(=C/c1cccc([N+](=O)[O-])c1)NC(=O)c1ccccc1,-2.4,7,38,119,99,i,0.94
Cc1ccc(C)c(OCCCNC2CCCC2)c1C,.,-1,0,92,99,i,0.93
COC(=O)C1(CO)NC(c2cccs2)C2C(=O)N(c3ccccc3)C(=O)C21 (stereo unspecified),-3.9,-4,.,.,108,i,0.98
COc1cc(C(=O)NC2(C(F)(F)F)NC(=O)N(CCCc3ccccc3)C2=O)cc(OC)c1OC (stereo unspecified),-0.1,-7,.,.,107,.,.
CC(C)C(=O)Nc1ccccc1N1CCN(C(=O)c2ccccc2)CC1,-1.9,-6,49,129,97,i,1
CCOc1ccc(/C=C(\C#N)C(=O)Nc2cccnc2)cc1,-0.9,-7,.,.,102,.,.
CCOC(=O)c1c(NC(=O)Cn2nc(C(=O)O)c3ccccc3c2=O)sc2c1CCC(C)C2 (stereo unspecified),.,.,.,.,100,i,0.74
CC1(CCc2ccc(O)cc2)NC(=O)NC1=O (stereo unspecified),-0.9,4,9,80,102,i,1
CCOC(=O)C1CCN(C(=S)Nc2ccc(S(N)(=O)=O)cc2)CC1,-1.6,2,29,108,92,i,1
Cc1ccc(C)c(OCC(=O)N/N=C/c2ccsc2)c1,-2.5,-11,19,95,108,i,0.93
COc1cc(-c2ccc(NC(=O)CN3CCCCC3)c(OC)c2)ccc1NC(=O)CN1CCCCC1,1.2,-5,-19,158,.,.,.

# Grouped by structure, the entries above containing a CF3 group (2)
SMILES,GALR2 agonist,PKD1 kinase inh,INS promoter inh,INS promoter inh cell count,RGS16-Gao HTS,HSV replic up,HSV replic up primary fold
O=[N+]([O-])c1cc(Cl)ccc1N1CCN(c2cccc(C(F)(F)F)c2)CC1,-0.8,0,.,.,100,i,1.2
COc1cc(C(=O)NC2(C(F)(F)F)NC(=O)N(CCCc3ccccc3)C2=O)cc(OC)c1OC (stereo unspecified),-0.1,-7,.,.,107,.,.
